Screening results deposited in PubChem BioAssay by National Center for Advancing Translational Sciences (NCATS).
2A firefly: lowers the firefly signal of an FMDV 2A StopGo reporter. hit rate 0.23% among 120,000. HEK cells with a luciferase reporter of 2A StopGo recoding. AID 1745856. Potency, µM (top dose mostly 57.5 µM), for the others: top-dose signal change, negative = less light; active = well fitted falling curve with a large enough effect; inconclusive = small, poorly fitted or top-dose-only effect; inactive = no such curve, though single readings can be large or run the other way; further: nearly all actives have a fitted effect of over 60% in size; overnight with compound
2A Renilla: FMDV 2A StopGo reporter, Renilla signal. hit rate 0.32% among 120,000. HEK cells with a luciferase reporter of 2A StopGo recoding. Potency, µM (series often up to 57.5 µM), inactives show at the top dose signal change, negative = less light. AID 1745857; active means well fitted falling curve with a large enough effect; inconclusive means small, poorly fitted or top-dose-only effect; inactive means no such curve, though single readings can be large or run the other way; further: nearly all actives have a fitted effect of over 55% in size; overnight with compound
* hit, by the source's call; ? = inconclusive; & = joins results of further samples; [ ] = remark or other dose. On the % scale 0 is the no-effect control and ±100 the full control effect; potency means the concentration at half of the fitted maximal effect.

SMILES | 2A firefly | 2A Renilla
CC1(C)CC(=O)C2=C(C1)NC1=C(C(=O)c3ccccc31)C2c1ccc(C(F)(F)F)cc1 (configuration not stated) | ? | ?
COc1ccc(OC)c(CNCc2c(C(=O)O)n(Cc3cccc(F)c3)c3cc(OC)ccc23)c1 | -21% | 135%[activator]
CCS(=O)(=O)c1nc(-c2ccc(F)cc2)cc(C(F)(F)F)n1 | ? | ?
O=C(O)c1ccc2c(c1)OCCOCCOCCO2 | 6% | 2%
Cc1ccc(C(=O)Cn2c(Cl)nc3c2c(=O)n(C)c(=O)n3C)c(C)c1 | 0% | ?
CC(C)Nc1nc(-c2ccc(S(=O)(=O)N3CCCCCC3)cc2)cs1 | ? | ?
CN(C(=O)c1cc2c(=O)n3ccccc3nc2n1C)c1ccccc1 | 112%[activator] | 3%
CC(C)NC(=O)c1ccccc1C(=O)c1ccc(F)cc1 | ? | ?
S=c1[nH]c2cc(-c3ccccc3)ccc2s1 | 55%[activator] | 2%
Cc1ccc2cc(C(=O)NCc3ccc(N4CCCC4)nc3)c(C)nc2c1 | ? | ?
COc1cccc(-n2c(=O)c3c(C)c(C(=O)N(C)C)sc3n(Cc3cccc(C)c3)c2=O)c1 | -9% | -13%
CCCCNC(=O)CSc1c2c(nc3cc(Cl)ccc13)CCCC2 | 0% | 20%
Cc1cc(C)nc(SCC(C)Cn2c(Br)nc3c2c(=O)[nH]c(=O)n3C)n1 (configuration not stated) | 12% | 2%
COc1cccc(CNC(=O)C=C(C)C)c1 | 10% | 10%
Cc1cc(C)n(CCCNCC(O)COCc2cccs2)n1 (configuration not stated) | -4% | -1%
O=C(Nc1ccccc1I)c1cc2ccccc2oc1=O | 45%[activator] | -15%
CC(=O)c1ccc(NC(=O)Cn2cc(S(=O)(=O)Cc3ccccc3Cl)c3ccccc32)cc1 | 0% | 121%[activator]
COc1cccc(C(=O)c2sc(Nc3ccc(C)cc3C)c(S(=O)(=O)c3ccccc3)c2N)c1 | -5% | 10%
CC(C)(C)C(=O)N1CCN(c2nc3c(F)cccc3s2)CC1 | 58%[activator] | -1%
CC1(C)O[C@@H]2C[C@H]3[C@@H]4CCC5=CC(=O)CC[C@]5(C)[C@@]4(F)[C@@H](O)C[C@]3(C)[C@]2(C(=O)CCl)O1 | 6% | 1%
CCCCc1cc(=O)oc2cc(OC(C)C(=O)NCc3ccncc3)ccc12 (configuration not stated) | 5% | 5%
COc1ccc(S(=O)(=O)Oc2ccc3c(c2)O/C(=C\c2cccc(OC)c2OC)C3=O)cc1 | -9% | -11%
Cc1cccc(-n2c3nc(=O)n(C)c(=O)c-3cc3c(Cl)cccc32)c1C | -27% | -12%
COc1cc(NC(=O)CSc2nc3ncccc3o2)cc(OC)c1 | -9% | -1%
COc1ccc(/C=C/C(=O)OCc2cc(=O)oc3cc(C)ccc23)cc1 | 1% | -3%
CCCCn1c(N)c(N(CC(C)C)C(=O)c2ccc(-c3ccc(Cl)cc3)o2)c(=O)[nH]c1=O | 0% | -9%
COc1ccc(NC(=O)CN2CCN(Cc3ccccc3Cl)S2(=O)=O)cc1Cl | -6% | 34%[activator]
COc1ccc(CC(=O)OCC(=O)Nc2ccccc2OC(F)F)cc1 | -5% | -14%
Cc1cc(C)cc(NC(=O)Cc2noc3ccccc23)c1 | 93%[activator] | 15%
O=C(CSc1nc2ccccc2o1)N1CCCC1C1CCCCC1 (configuration not stated) | 13% | 13%
COC(=O)c1ccccc1NC(=O)CN1C(=O)COc2ccccc21 | -7% | -3%
Cc1cccc(NC(=O)CN2C(=O)c3cccc4cccc2c34)c1C | -15% | -7%
Nc1nc(CN2CCN(C(=O)c3ccccc3Cl)CC2)nc2ccccc12 | 19% | -7%
COc1ccc(C2CCCN2C(=O)Cn2cccnc2=O)c(OC)c1 (configuration not stated) | -8% | -11%
CCOc1ccc(NC(=O)Cn2c(=O)n(Cc3ccc(C(=O)NCc4ccc5c(c4)OCO5)cc3)c(=O)c3ccccc32)cc1 | -12% | -9%
CCc1ccc(N(CC)C(=O)Cn2c(=O)oc3ccccc32)cc1 | -20% | -6%
CC1Cc2ccccc2N1S(=O)(=O)c1ccccc1F (configuration not stated) | 2% | 26%
COc1ccccc1CNC(=O)Cn1ncc2c(C)n(Cc3ccccc3Cl)c(C)c2c1=O | 6% | -5%
O=C(c1ccc(C(F)(F)F)cc1)N1CCN(C2CC2)CC1 | -1% | 11%
COc1ccc(S(=O)(=O)NCCS(=O)(=O)N2CCN(c3ccccc3)CC2)cc1OC | -9% | 53%[activator]

Some values from the list:
O=C(CSc1nc2ccccc2o1)N1CCCC1C1CCCCC1 (configuration not stated) – 2A Renilla: 13%
Nc1nc(CN2CCN(C(=O)c3ccccc3Cl)CC2)nc2ccccc12 – 2A firefly: 19%
CCCCn1c(N)c(N(CC(C)C)C(=O)c2ccc(-c3ccc(Cl)cc3)o2)c(=O)[nH]c1=O – 2A Renilla: -9%
CC1Cc2ccccc2N1S(=O)(=O)c1ccccc1F (configuration not stated) – 2A Renilla: 26%

Next part.
SMILES | 2A firefly | 2A Renilla
CCCCc1ccc(C(=O)Nc2ccc3nc(N(CC)CC)cc(C)c3c2)cc1 | -10% | 3%
CCN1CCN(c2oc(/C=C/c3cccs3)nc2C#N)CC1 | -6% | 20%
COc1ccc(N2C(=O)CS(=O)(=O)C23C(=O)N(Cc2ccccc2)c2ccccc23)cc1 (configuration not stated) | -3% | -3%
Cc1ccc(CS(=O)(=O)c2ncc(Cl)c(C(=O)Nc3nc4ccc(F)cc4s3)n2)cc1 | -16% | -16%
CCCCc1nc2sc3c(NCCN(C)C)ncnc3c2c2c1COC(C)(C)C2 | -16% | -11%
CCc1cccc(NS(=O)(=O)c2ccc3c(c2)CC(C)N3C(=O)C2CC2)c1 (configuration not stated) | ? | 7%
CCOc1nc(OCC#N)nc(N2CCOCC2)n1 | 2% | 4%
Cc1cccc(NC(=O)CSc2nc3c(c(=O)n2CCc2ccccc2)SCC3)c1 | 2% | -7%
CCc1ccc(CNC(=O)c2ccc3c(c2)N=C(C)c2cc(C)ccc2S3)cc1 | 30% | 237%[activator]
COc1ccc(C(=O)c2cn(Cc3ccccc3)c3ccccc3c2=O)cc1OC | -12% | 14%
COc1ccccc1N1C(=O)N(Cc2ccc3c(c2)OCO3)c2ccccc2S1(=O)=O | 13% | 11%
CCc1cccc(NC(=O)c2c(C)oc3nc(C)nc(N4CCCC4)c23)c1 | -19% | 2%
CCC(=O)N1N=C(c2ccsc2)CC1c1ccc2nccnc2c1 (configuration not stated) | 1% | 6%
COc1ccc(-c2cc3ccc(O)c(CN4CCCC(C)C4)c3oc2=O)cc1 (configuration not stated) | -21% | -6%
CC(Sc1n[nH]c(=O)n1C1CC1)C(=O)c1ccc(F)cc1 (configuration not stated) | 3% | -7%
CC(C)CC(=O)NN | 24% | 10%
Cc1ccc(S(=O)(=O)NCc2nc(-c3ccccc3)oc2C)cc1 | 8% | 88%[activator]
Cc1ccc(Cl)cc1NC(=O)CCC(=O)N1CC(C)Sc2ccccc21 (configuration not stated) | -16% | 12%
Cc1ccccc1CNC(=O)CN1C(=O)CSc2ccc(S(=O)(=O)N(C)C)cc21 | -11% | -6%
CN(Cc1ccccc1F)C(C(=O)NC1CC1)c1ccccc1 (configuration not stated) | -4% | 0%

In the list so far, 2 contain a furan ring, fused or not:
SMILES | 2A firefly | 2A Renilla
CCCCn1c(N)c(N(CC(C)C)C(=O)c2ccc(-c3ccc(Cl)cc3)o2)c(=O)[nH]c1=O | 0% | -9%
CCc1cccc(NC(=O)c2c(C)oc3nc(C)nc(N4CCCC4)c23)c1 | -19% | 2%

New compounds follow.
SMILES | 2A firefly | 2A Renilla
COc1ccc(CCNC(=O)c2ccc3c(c2)CCN3S(=O)(=O)c2ccccc2)cc1 | -2% | 140%[activator]
Cn1nc(C(=O)OCCOc2ccc(C#N)cc2)c2ccccc2c1=O | -2% | -11%
Cc1ccc(OCCCn2c(C3CC(=O)N(c4cccc(Cl)c4)C3)nc3ccccc32)c(C)c1 (configuration not stated) | -5% | 7%
Cc1ccc(S(=O)(=O)N(CC(N)=O)Cc2c(F)cccc2Cl)cc1 | -15% | 1%
CC(C)OC(=O)COc1ccc2cc(-c3ccc(Cl)cc3)c(=O)oc2c1 | 51%[activator] | 11%
CCSc1nc2sc3c(c2c(=O)n1-c1ccc(C)cc1)CCCC3 | 0% | -16%
CCOc1ccc(Cn2c(CNS(=O)(=O)c3cccc(Cl)c3)nc3cccnc32)cc1 | -9% | 190%[activator]
O=C(Nc1c(C(=O)O)oc2ccccc12)c1ccc(C(F)(F)F)cc1 | 49%[activator] | -8%
COc1ccc(-c2nc(C#N)c(NC(C)c3ccccc3)o2)cc1 (configuration not stated) | 23% | 52%[activator]
Cc1cc2c(cc1S(=O)(=O)C(C)CC(=O)NC1CCC(C)CC1)OCC(=O)N2 (configuration not stated) | -4% | 10%
Cc1ccc(-c2nnn(Cc3cc(=O)n4ccsc4n3)n2)cc1 | 3% | -26%
CC(C)c1nnc(SCC(=O)N(C)CCOc2ccc(Br)cc2)n1Cc1ccco1 | -7% | -4%[1.06 µM]
CCc1ccc(OC(=O)c2ccccc2C)c(Br)c1 | 136%[activator] | 49%
Cc1ccc(-c2c(C)n3c4c(=O)n(C)c(=O)n(C)c4nc3n2-c2cccc(O)c2)cc1 | 3% | -7%
CCN(CC)S(=O)(=O)c1cccc(NC(=O)c2ccc3ccccc3n2)c1 | ? | ?
Cc1cc(C)c2cc(C(=O)OCc3ccc(C(=O)N4CCCC4)cc3)[nH]c2c1 | 15% | 36%[activator]
Cc1ccc(CNCc2ccccc2Cl)s1 | 49%[activator] | -10%
COc1ccccc1N1CCN(C(CNC(=O)C(=O)NCCc2ccccc2)c2cccnc2)CC1 (configuration not stated) | ? | ?
CCCCN(CC)CCNC(=O)C1CCCN(c2ncnc3onc(C)c23)C1 (configuration not stated) | -6% | -6%
Cc1ccc(NC(=O)c2ccc(-n3c(C)nnc3C)cc2)cc1F | 56%[activator] | -15%
CN1CC(=O)N/C1=N/C(=O)Nc1cccc(Cl)c1 | 41%[activator] | 3%
CC1CCc2c(sc3nnn(Cc4ccccc4)c(=O)c23)C1 (configuration not stated) | -8% | -7%
COc1ccc(Cn2c(SCc3ccc(C(=O)NCc4ccc(C)cc4)cc3)nc3cccnc32)cc1 | 0% | -12%
CCc1ccc(CNC(=O)C2CCCN(c3nnc(C)c4c(C)n(-c5ccccc5)nc34)C2)cc1 (configuration not stated) | -3% | 54%[activator]
COc1cc2c(=O)c(S(=O)(=O)c3ccccc3)cn(CC(=O)Nc3ccccc3C)c2cc1OC | -19% | -6%
Cc1n[nH]c(C)c1S(=O)(=O)N(CC(=O)NCc1ccccc1Cl)c1ccc(C(C)C)cc1 | -14% | 74%[activator]
CCc1nc(N)sc1C | -1% | -2%
Cc1oc(-c2ccc(C(=O)N3CCN(C)CC3)cc2)nc1CN1CCc2ccccc21 | 11% | -3%
COCCCNC(=O)Cn1c(=O)n(-c2cccc(C)c2)c(=O)c2c1c1cc(C)ccc1n2C | -8% | 2%
CCS(=O)(=O)c1ccc2oc(Nc3ccc(Oc4ccccc4)cc3)nc2c1 | ? | ?
COc1ccc(CNC(=O)c2cc3c(=O)n(Cc4cccs4)ccc3nc2C)cc1 | 1% | 196%[activator]
CCc1ccc2nc(Nc3nc(CSc4ccc(C)cc4)cc(=O)[nH]3)nc(C)c2c1 | -1% | -2%
CCOc1ccccc1NC(=O)CCc1ncc(-c2ccc(C)cc2)o1 | -6% | -4%
CCn1c(/C=C/c2cn(CC)c3ccccc23)nc2ccccc2c1=O | 32%[activator] | -13%
CC(C)NC(=O)c1cc2c(Cl)nc3ccccc3c2s1 | 5% | 8%
Cc1cc(C(=O)NCCc2ccccc2)c2cccc(C)c2n1 | 22% | 15%
Cc1ccccc1NC(=O)N(Cc1nnc2n1CCCCC2)c1ccc(F)cc1 | 12% | 14%
COCCn1c(CNC(=O)c2cc(OC)c(OC)c(OC)c2)nc2cccnc21 | 2% | 1%
COCCn1c(C)cc(C(=O)C(=O)Nc2nnc(COc3cc(C)ccc3C)s2)c1C | -2% | -15%
CCn1c(=O)c2cc(C(=O)NC3CCCCCC3)sc2c2ccccc21 | ? | ?
CC1(C)CC(=O)c2cc(C(=O)Nc3ccccc3Cl)c(=O)n(-c3ccc(Cl)cc3)c2C1 | -12% | -7%
Cc1cc(NC(=O)c2ccc3nc(N4CCCCC4)sc3c2)ccc1Br | -11% | 4%
COc1ccc(OC)c(NC(=O)COC(=O)c2cc(C)nc3ccccc23)c1 | 18% | 7%
Cc1ccc(CNC(=O)C2CCCN(c3ncnc4onc(-c5ccc(F)cc5)c34)C2)cc1 (configuration not stated) | 7%&-4% | -1%&-5%
Cc1cc(S(=O)(=O)c2cc3ccccc3oc2=O)ccc1F | -14% | -15%
COc1ccc(-c2cc(-c3ccccc3)nc3c2COc2ccccc2-3)cc1 | -12% | -7%
CCOc1ccccc1NC(=O)COC(=O)CC(C)(C)CC1=NS(=O)(=O)c2ccccc2N1 | -27% | 86%[activator]
Cc1oc2ncn(CC(C)C)c(=O)c2c1C(=O)NCCCN1CCCCC1C (configuration not stated) | 1% | -6%

Shown field by field: 4 of the compounds above.
Cc1cc(S(=O)(=O)c2cc3ccccc3oc2=O)ccc1F
  2A firefly = -14% | 2A Renilla = -15%

COc1ccc(-c2cc(-c3ccccc3)nc3c2COc2ccccc2-3)cc1
  2A firefly = -12% | 2A Renilla = -7%

CCOc1ccccc1NC(=O)COC(=O)CC(C)(C)CC1=NS(=O)(=O)c2ccccc2N1
  2A firefly = -27% | 2A Renilla = 86%[activator]

Cc1oc2ncn(CC(C)C)c(=O)c2c1C(=O)NCCCN1CCCCC1C (configuration not stated)
  2A firefly = 1% | 2A Renilla = -6%

Not all compounds are listed; rates above refer to the full screens.
